Source: PubChem (ICCB-Longwood Screening Facility, Harvard Medical School)
PV pol inh: inhibitors of poliovirus RNA polymerase binding and polymerization; AID 588519; % elongation, % (compound at 16.7 µg/mL); 0.66% of 150,000 active; P03300; poliovirus polymerase elongation, fluorescence polarization; active compounds read low; in the data active means % elongation below about 90%; further: some results filed as inactive read as strong as hits
Target sequence (P03300 1749-2209 limits assumed): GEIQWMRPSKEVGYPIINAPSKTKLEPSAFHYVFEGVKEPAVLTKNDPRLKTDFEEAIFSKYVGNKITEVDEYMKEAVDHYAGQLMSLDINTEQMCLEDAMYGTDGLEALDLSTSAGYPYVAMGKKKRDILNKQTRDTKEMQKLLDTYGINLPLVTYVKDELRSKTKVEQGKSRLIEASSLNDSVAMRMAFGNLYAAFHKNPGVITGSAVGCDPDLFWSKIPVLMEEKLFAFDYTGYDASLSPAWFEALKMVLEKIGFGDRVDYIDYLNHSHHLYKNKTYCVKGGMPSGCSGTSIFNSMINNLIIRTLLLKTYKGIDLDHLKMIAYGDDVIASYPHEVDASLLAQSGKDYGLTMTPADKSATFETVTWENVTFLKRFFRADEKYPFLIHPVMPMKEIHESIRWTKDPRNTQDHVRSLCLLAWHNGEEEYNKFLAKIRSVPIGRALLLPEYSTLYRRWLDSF
PV pol inh intensity: recorded beside PV pol inh, whose call it bears; % elongation; measured here: total intensity read-out; formula for this scale not given here;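 total fluorescence in place of polarization; lower means less elongation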
* = called active by the depositor.

For Cc1ccc(NC(=O)Cn2c(=O)n(CCC(=O)N3CCc4ccccc4C3)c(=O)c3ccccc32)c(C)c1 the results were PV pol inh 99 and PV pol inh intensity 100.
Screening Cc1cccc2nc(-c3ccccn3)c(Nc3ccccc3)n12 returned PV pol inh 112 and PV pol inh intensity 118.
`Cc1ccccc1Cc1c(C)nc2c(-c3ccccc3)c(C)[nH]n2c1=O` gave PV pol inh 103 and PV pol inh intensity 108.
`COc1ccc(OCC(=O)Nc2cc(-c3nc4ccccc4s3)ccc2C)cc1` gave PV pol inh 108 and PV pol inh intensity 113.
For COc1ccc(CNC(=O)Nc2ccc3c(c2)N(C)C(=O)c2ccccc2S3)cc1OC the results were PV pol inh 107 and PV pol inh intensity 108.
`Cc1ccc(Nc2nc3ccccc3c3nnc(C)n23)c(C)c1` gave PV pol inh 105 and PV pol inh intensity 110.
For Cc1cccc(NC(c2ccccc2F)c2ccc3ccc(C)nc3c2O)n1 (configuration not stated) the results were PV pol inh 108 and PV pol inh intensity 112.
Screening Cc1ccccc1C(=O)Nc1cccc(-c2nc3cccnc3s2)c1 returned PV pol inh 105 and PV pol inh intensity 109.
`Cc1ccnc(NC(c2cccc(O)c2)c2ccc3ccc(C)nc3c2O)c1` (configuration not stated) gave PV pol inh 119 and PV pol inh intensity 126.
`CCOc1ccc(NC(=O)Cn2cc(C(=O)c3cccs3)c3ccccc32)cc1` gave PV pol inh 104 and PV pol inh intensity 106.
`CCC(Sc1nc2ccccc2c2nc(CCn3cncc3C)nn12)C(=O)Nc1cccc(OC)c1` (configuration not stated) gave PV pol inh 108 and PV pol inh intensity 111.

By substructure: the entries above with sulfur
`COc1ccc(OCC(=O)Nc2cc(-c3nc4ccccc4s3)ccc2C)cc1` gave PV pol inh 108 and PV pol inh intensity 113.
For COc1ccc(CNC(=O)Nc2ccc3c(c2)N(C)C(=O)c2ccccc2S3)cc1OC the results were PV pol inh 107 and PV pol inh intensity 108.
Screening Cc1ccccc1C(=O)Nc1cccc(-c2nc3cccnc3s2)c1 returned PV pol inh 105 and PV pol inh intensity 109.
`CCOc1ccc(NC(=O)Cn2cc(C(=O)c3cccs3)c3ccccc32)cc1` gave PV pol inh 104 and PV pol inh intensity 106.
`CCC(Sc1nc2ccccc2c2nc(CCn3cncc3C)nn12)C(=O)Nc1cccc(OC)c1` (configuration not stated) gave PV pol inh 108 and PV pol inh intensity 111.

The list is partial. The share of hits here may be higher or lower than overall.
